Assay outcomes: PubChem BioAssay, Southern Research Institute
Mtb growth – Confirmatory growth inhibition assay against Mycobacterium tuberculosis H37Rv, potency (AID 1949) | actives 1.6% (n = 100,000) | inhibition, % at 10 µg/mL; hits with a dose series show IC50 in µg/mL | most inactive calls were filed without a number and no value below 0 was filed;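 active = confirmed in a dose series; inconclusive = about 50% or more but not retested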;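 also: bacteria grown 7 days with compound before Alamar blue readout; 0% = untreated bacteria and 100% = reference antibiotic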
The depositor's hits bear a star; i = inactive; ? = inconclusive. A portion of the library, so the mix of outcomes need not match the whole.

Start of the data: the first 2 compounds, ahead of the listing:
SMILES | Mtb growth
COc1ccc(C2(CNC(=O)c3ccc(Cl)cc3Cl)CCOCC2)cc1 | i
COC(=O)c1sc(NC(=O)c2cc(-c3cccnc3)nc3ccc(Cl)cc23)nc1C | i

Results, from the first entry:
SMILES | Mtb growth
COc1ccc(C2(CNC(=O)c3ccc(Cl)cc3Cl)CCOCC2)cc1 | i
COC(=O)c1sc(NC(=O)c2cc(-c3cccnc3)nc3ccc(Cl)cc23)nc1C | i
Cc1ccc2nc(SCC(=O)N(C)c3ccccc3)[nH]c2c1 | i
Cc1cc(Cl)ccc1NC(=O)CN(c1ccc(Cl)c(C(F)(F)F)c1)S(C)(=O)=O | i
COc1ccc(NC(=O)COc2ccc(C=O)cc2Br)cc1 | 3%
COc1cc(Cl)c(S(=O)(=O)Nc2ccc3cn[nH]c3c2)cc1Cl | i
COc1cc(C(=S)N2CCCC2)cc(OC)c1OC | i
CCOc1ccc(C(=O)Nc2sc(C)c(C)c2C(=O)OC(C)C)cc1 | i
Cc1ccc(C(=O)N2CC3CC(C2)c2cccc(=O)n2C3)cc1 (stereo not drawn) | i
O=C(CN1CCOCC1)Nc1ccc(Oc2ccc(NC(=O)CN3CCOCC3)cc2)cc1 | 2%
O=[N+]([O-])c1cccc(-c2nc(Nc3ccc(F)c(F)c3)c3ccccc3n2)c1 | i
CCC(C)Oc1ccc(C(=O)NC(=S)Nc2ccc(Cl)c(C(=O)O)c2)cc1 (stereo not drawn) | 6%
COc1ccc(Nc2nc(-c3ccc(NC(C)=O)cc3)cs2)c(OC)c1 | 2%
Cc1ccn2cc(CSc3ccccc3N)nc2c1 | i
CCOCCCNCc1cc(Cl)ccc1OCC | i
O=C1CN=C(c2ccc(F)cc2)c2oc3ccccc3c2N1 | 2%
CCOc1ccc(-c2cc(C)n3nc(C(N)=O)cc3n2)cc1 | i
O=C(NCc1cccnc1)Nc1ccc2c(c1)OCO2 | i
Cc1cccc(OCC(=O)NC(=S)Nc2ccc3c(c2)C(=O)N(C)C3=O)c1C | 3%
CSc1nnc(C(C)(C)C)c(=O)n1N | 2%
C=CCn1c(COc2c(C)cccc2C)nnc1SCC(=O)c1ccc(Br)cc1 | 0%
CN(C)CCCOc1cccc(Br)c1 | i
COc1ccc(CN2CCN(Cc3c[nH]c4ccccc34)CC2)cc1OC | i
Clc1ccc(Cl)c(-c2nc(-c3cccnc3)no2)c1 | 4%
O=C(NC12CC3CC(CC(C3)C1)C2)N1CCN(C/C=C/c2ccccc2)CC1 | 14%
C=CCNC(=O)c1c(NC(=O)c2ccccc2C)sc2c1CCCCC2 | i
Cc1nccn1CCc1nc(N)nc(N)n1 | 1%
COc1ccc(-c2nn(-c3ccccc3)cc2CN(Cc2ccccc2)C(C)=O)cc1OC | i
COc1ccccc1OC(=O)COc1ccc(C)cc1Br | i
Nc1nc2n(n1)C(c1ccc(F)cc1)CC(c1ccccc1Cl)N2 (stereo not drawn) | i
C=CCOc1ccc(Br)cc1CNCCCN1CCOCC1 | i
N#Cc1cccc(NC(=O)C(F)(F)F)c1 | i
CCC(C)(C)c1ccc(OCCN2CCOCC2)cc1 | 2%
CCOc1ccc(C(=O)Nc2cc(OC)c(OC)cc2C(=O)OC)cc1 | i
COc1ccccc1Nc1nc(N)nc(CN2CCC(C)CC2)n1 | ?
CN(C)S(=O)(=O)c1cc(C(=O)N2CCN(Cc3ccccc3)CC2)c(Cl)cc1Cl | 1%
O=S(=O)(c1ccc(Cl)cc1)N1CCN(CC(O)Cn2c3ccccc3c3ccccc32)CC1 (stereo not drawn) | i
CCCCOc1ccc(C(=O)Nc2ccccc2C(=O)NCc2ccccc2)cc1 | i
CCOC(=O)C1CCCN(C(=O)CCSc2ccccc2)C1 (stereo not drawn) | i
O=C(Nc1ccc(Cl)cc1Cl)c1cnn2c(C(F)F)cc(-c3ccccc3)nc12 | i
COc1ccc(S(=O)(=O)NC2CCCC2)cc1Br | i
C=CCOc1ccc(C(=O)Nc2ccccc2-c2ccccc2)cc1 | i
COC(=O)c1c(-c2ccccc2)csc1NC(=O)c1c(C)noc1C | i
Cc1[nH]n(-c2ccc3ccccc3c2)c(=O)c1C=O | i
CCn1c(SCC(=O)Nc2cc(C)ccc2OC)nnc1-c1ccc(Br)cc1 | i
O=C(Nc1ccc(Cl)c(Cl)c1)Nc1ccc(Br)cc1F | 0.37µg/mL*
CCS(=O)(=O)N1CCC(N2CC(C)CC(C)C2)CC1 (stereo not drawn) | i
COC(=O)N1CCN(c2ccc(OC)cc2)CC1 | i
COc1ccc([N+](=O)[O-])cc1CSc1nnc(NC(=O)c2ccccc2)s1 | i
COc1ccc(-c2csc(NC(=S)NC(=O)c3ccc4ccccc4c3)n2)cc1OC | 1%
O=C(Nc1ccc(F)cc1)c1ccc(Cl)c(S(=O)(=O)N2CCCCC2)c1 | i
Cc1ccc(Nc2nc(C3CC(CC(C)C)C(=O)O3)cs2)cc1 (stereo not drawn) | 1%
CCOC(=O)c1c[nH]c2cc3c(cc2c1=O)OCCO3 | i
CCOc1cc(C(=O)NCC2CCCO2)cc(OCC)c1OCC (stereo not drawn) | i
CCc1cc2c(=O)n(Cc3c(Cl)ccc(Cl)c3Cl)cnc2s1 | 2%
OC1(c2ccc(F)cc2)CCN(Cc2ccccc2)C1 (stereo not drawn) | i
CC(C(=O)NC1CC(C)(C)NC(C)(C)C1)c1ccc([N+](=O)[O-])cc1 (stereo not drawn) | i
CCOc1ccccc1NC(=O)Nc1ccc(Br)cc1C | i
Cc1cc(=O)[nH]c(Nc2ccccc2C)n1 | 7%
COC(=O)C1=C(C)NC2=C(C(=O)CC(c3cccs3)C2)C1c1ccc(F)c(Br)c1 (stereo not drawn) | i
Following part
SMILES | Mtb growth
NC(=O)c1c(NC(=O)c2ccc(Br)o2)sc2c1CCCCCC2 | i
CCC(=O)Nc1sc2c(c1C#N)CCCCC2 | 1%
Oc1ccccc1-c1csc(-c2ccccc2F)n1 | 6%
O=C(NCCSCc1c(F)cccc1Cl)Nc1ccccc1 | i
Cc1cc(OC(F)F)ccc1NC(=O)Nc1ccc([N+](=O)[O-])cc1 | 23µg/mL*
O=C(Cc1cccc2ccccc12)Nc1ccccc1C(=O)O | 2%
CCOC(=O)c1c(NC(=O)c2cc(Br)ccc2Cl)sc(C(C)=O)c1C | i
CCc1cccc(C)c1NC(=O)Cc1ccc(Cl)cc1 | i
O=C(O)c1cccc(NC(=S)NC(=O)c2ccc3ccccc3c2)c1 | i
COC(=O)c1ccc2c(=O)n(CCSc3ccc(C)cc3)c(=S)[nH]c2c1 | 0%
C=CCOc1ccc2c(=O)c(Oc3ccc(C)cc3)coc2c1 | 3%
Cc1ccc(C(=O)O)cc1NC(=S)NC(=O)c1cc2ccccc2o1 | 1%
C=CCS(=O)(=O)c1ccc([N+](=O)[O-])cc1 | i
Cc1ccc(C(NC(=O)C(c2ccccc2)C(C)C)c2ccccc2)cc1 (stereo not drawn) | 1%
CCN(CCO)c1ccc(Nc2ccc(C(F)(F)F)cc2[N+](=O)[O-])cc1 | 25%
CN(c1ccc(C(=O)NC2CC2)cc1)S(=O)(=O)c1ccccc1 | i
CCc1nnc(NC(=O)CSc2nc(N)cc(=O)[nH]2)s1 | i
N/C(=N\OC(=O)CC1CCCCC1)c1ccncc1 | i
O=C(Nc1cccc([N+](=O)[O-])c1)C1C2C3CCC(C3)C12 (stereo not drawn) | i
O=C(CSc1nnc(-c2cccc([N+](=O)[O-])c2)o1)c1ccc2c(c1)OCCO2 | 1%
Cc1ccc2cccc(OCCOc3ccccc3C(C)C)c2n1 | 4µg/mL*
COC(=O)c1ccc(N2C(=O)CC(N(Cc3ccccc3)C(=S)Nc3ccccc3)C2=O)cc1 (stereo not drawn) | i
Cc1ccc(-c2nn(C)c(=O)c3ccccc23)cc1S(=O)(=O)NCCO | 5%
COc1ccc(NC(=O)COc2ccc(S(=O)(=O)NC(C)C)cc2)cc1Cl | i
CC(=O)c1ccc(N/C(=N\S(=O)(=O)c2ccccc2)c2ccc(Cl)cc2)cc1 | i
CCOC(=O)c1ccc2nc(C)c3c(c2c1)OC(C(C)(Cl)Br)C3 (stereo not drawn) | 32%
CCCCNCCOCCOc1ccc(F)cc1 | i
Cc1cc(C(F)F)n2nc(C(=O)NCc3ccccc3F)nc2n1 | i
Cc1cccc(-c2nnc(SCC(=O)Nc3nccs3)n2C)c1 | i
CCOC(=O)C12C(=O)OC(C)(C)C1C2(CC)C(=O)c1ccc(Br)cc1 (stereo not drawn) | 0%

A draw from above in order of heavy-atom count, rising.
SMILES | Mtb growth
CCOC(=O)c1ccc2nc(C)c3c(c2c1)OC(C(C)(Cl)Br)C3 (stereo not drawn) | 32%
Cc1ccc(-c2nn(C)c(=O)c3ccccc23)cc1S(=O)(=O)NCCO | 5%
CC(=O)c1ccc(N/C(=N\S(=O)(=O)c2ccccc2)c2ccc(Cl)cc2)cc1 | i
COC(=O)c1ccc(N2C(=O)CC(N(Cc3ccccc3)C(=S)Nc3ccccc3)C2=O)cc1 (stereo not drawn) | i

Further results follow:
SMILES | Mtb growth
O=C(c1cc(S(=O)(=O)N2CCCC2)c(Cl)cc1Cl)N1CCCC1 | 6%
Cc1nc(NC2CCCC2)c2c3c(sc2n1)CCCC3 | 0%
O=C(CSc1nnc(-c2ccccc2Br)o1)c1ccc2c(c1)OCCO2 | i
Cc1cc(NC(=O)c2ccccc2Br)ccc1O | i
CC1(C)CC(=O)C2=C(C1)Nc1ccccc1NC2c1ccsc1 (stereo not drawn) | i
COc1ccc(Nc2ccc(NC(=S)NC3CCCC3)cc2)cc1 | i
COc1ccccc1OCc1ccc(C(=O)O)cc1 | i
Cc1ccc(-c2nnc(SCC(=O)Nc3nc(-c4ccccc4)c(C)s3)n2C)cc1 | i
COc1ccc(-c2ccc(C#N)c(SCC#N)n2)cc1OC | i
Cc1c(Cl)cccc1N(CC(=O)NC1CCCCC1)S(C)(=O)=O | i
CCc1ccc(OC(C)c2nnc(SCC(=O)Nc3c(C)cc(Br)cc3C)n2CC)cc1 (stereo not drawn) | 2%
CCOc1ccc(C(=O)N2CCC(C(=O)OC)CC2)cc1 | 2%
CCNS(=O)(=O)c1ccc(NC(=S)Nc2ccc(OCC)cc2)cc1 | 3%
COc1cc(CN2CCN(C(=O)c3ccc(-c4ccccc4)cc3)CC2)cc(OC)c1O | i
CSc1cccc(NC(=O)CN(c2cc(C)ccc2C)S(C)(=O)=O)c1 | i

3 entries picked at random from those above, as already listed:
SMILES | Mtb growth
COc1ccc(Nc2ccc(NC(=S)NC3CCCC3)cc2)cc1 | i
CCNS(=O)(=O)c1ccc(NC(=S)Nc2ccc(OCC)cc2)cc1 | 3%
O=C(CSc1nnc(-c2ccccc2Br)o1)c1ccc2c(c1)OCCO2 | i

The list continues.
SMILES | Mtb growth
Cc1ccc(OC(=O)COc2ccc3ccccc3c2)cc1 | i
CCC(Sc1nc2ccccc2s1)C(=O)NC(C)c1ccccc1 (stereo not drawn) | i
C=CCNC(=O)c1ccccc1NC(=O)c1ccccc1N(C)S(C)(=O)=O | i
N#Cc1c(C(F)(F)F)cc(-c2cccs2)nc1SCC(=O)Nc1ccc2ccccc2c1 | 6%
Cc1cc2ncn(C(=O)Cn3cnc4c3c(=O)n(C)c(=O)n4C)c2cc1C | i
CSc1nc(-c2ccccc2)nc(N)c1C(C)=O | 2%
C=CCNC(=O)COc1ccc(C)cc1C | i
CCc1ccc(C(=O)NC(=S)Nc2ccc3[nH]c(=O)[nH]c3c2)cc1 | i
Cc1ccc([N+](=O)[O-])cc1S(=O)(=O)N1CCc2ccccc2C1 | i
O=[N+]([O-])c1cc(C(F)(F)F)ccc1NCCc1ccc(O)cc1 | 5%
Cc1ccc(S(=O)(=O)NC(=O)c2cccc(C)c2)cc1 | 0%
CC(NC=O)c1ccc(Cl)c(Cl)c1 (stereo not drawn) | i
COc1ccc(S(=O)(=O)Nc2ccc3c(c2)OCCO3)cc1C | 0%
CCc1ccc2nc(N/C(N)=N\S(=O)(=O)c3ccc(C)cc3)nc(C)c2c1 | 6%
O=C(NCc1ccccc1F)c1csc2ccccc12 | 6%
Cc1cc(I)cc(C)c1NC(=O)CSc1nnc(CCCOc2ccc(Cl)cc2Cl)o1 | i
COc1ccc(Br)cc1C(=O)NC(=S)Nc1cccc(NC(=O)C(C)C)c1 | 41%
CCOC(=O)c1c(NC(=O)c2ccc3c(c2)OCCO3)sc(C(=O)N(CC)CC)c1C | i
CN1C2=C(C(=O)CC(C)(C)C2)C(c2ccc(OCC(=O)Nc3ccccc3)c(Br)c2)C2=C1CC(C)(C)CC2=O | 10%
C=CCc1ccc(Oc2ccc(C(F)(F)F)cn2)c(OC)c1 | i
Cc1ccccc1OCC(=O)Nc1cccc(NC(=O)COc2ccccc2C)n1 | i
CCOC(=O)Cn1cc(C(=O)C(C)(C)C)c2ccccc21 | 12%
O=C(COc1ccc2ccccc2c1Br)N1CCN(c2ccccc2F)CC1 | 3%
CC(=O)c1cccc(NC(=O)CSCc2ccccc2)c1 | 40%
CNC(=O)COc1ccc(Br)c(C)c1 | i
CC12CCC(C(=O)Nc3cccnc3)(CC1=O)C2(C)C (stereo not drawn) | i
CC(C)Sc1nc2c(c(=O)[nH]1)C(c1ccccc1C(F)(F)F)C1=C(CC(C)(C)CC1=O)N2 (stereo not drawn) | i
CCC(C)NC(=O)c1ccccc1NC(=S)Nc1ccccc1 (stereo not drawn) | i
COc1ccc(CSc2nncn2N)cc1 | i
CCOc1ccc(-c2nc(NC(C)=O)c3c(=O)oc4ccccc4c3n2)cc1 | i
Cc1ccc(C(=O)Nc2cccc(S(=O)(=O)Nc3ccccc3)c2)cc1 | 9%
O=C(Nc1ccc2oc(=O)ccc2c1)c1cccs1 | i
CCc1ccc(O)c(NC(=S)NC(=O)c2ccccc2OC)c1 | i

As a working copy, some entries already given.
SMILES | Mtb growth
Cc1ccc(C(=O)N2CC3CC(C2)c2cccc(=O)n2C3)cc1 (stereo not drawn) | i
O=C(CN1CCOCC1)Nc1ccc(Oc2ccc(NC(=O)CN3CCOCC3)cc2)cc1 | 2%
O=[N+]([O-])c1cccc(-c2nc(Nc3ccc(F)c(F)c3)c3ccccc3n2)c1 | i
